# Assay outcomes: PubChem, several laboratories
# Vif TR-FRET – HIV-1 Vif–A3G interaction blockers – biochemical, TR-FRET, GST-Vif 1-94, biotin-A3G peptide, dose response retest, primary screen (AID 1117319); hit rate 0.57% among 260,000; one-dose inhibition, %; IC50 in µM for titrated hits; TR-FRET GST-Vif / biotin-A3G peptide binding; higher % means a stronger effect; test concentration not given here; strong numbers were not always called active;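 active means above the screen mean plus three standard deviations and confirmed in dose response; inconclusive means results disagree or hit not tested in dose response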;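 further: Vif residues 1-94 fused to GST binding biotinylated APOBEC3G peptide 110-148; 0% = full assay without inhibitor and 100% = GST in place of GST-Vif; retest series ran down from 100 µM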
# LANA-H2B inh – blocks KSHV LANA binding to histone H2A/H2B | Q9QR71 | cell-free LANA-H2A/H2B peptide, fluorescence polarization | inhibition, % (concentration not given with the values) | hit rate 0.6% among 320,000 | AID 2629; in the data active means inhibition mostly above about 10%, no sharp cut-off; inactive means mostly below about 6.7%;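 further: stock transfer was 7.5 nL into about 10 µL; 0% = median of vehicle wells and 100% = median of positive control wells; one replicate is shown; the record names a cut of 25% in any replicate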
# ALR inh – human ALR oxidase inhibition via reduced H2O2. P55789. purified ALR, DTT oxidation, H2O2 HRP-luminol luminescence. inhibition, % (concentration not given with the values). hit rate 3.8% among 290,000;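 active means mean and each replicate at 75% or more; inconclusive means only one of the two met; inactive means neither met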;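 further: stock transfer was 7.5 nL into about 7.5 µL; 0% = neutral wells and 100% = wells with inactivated enzyme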
# Target sequence (P55789 whole entry, looked up): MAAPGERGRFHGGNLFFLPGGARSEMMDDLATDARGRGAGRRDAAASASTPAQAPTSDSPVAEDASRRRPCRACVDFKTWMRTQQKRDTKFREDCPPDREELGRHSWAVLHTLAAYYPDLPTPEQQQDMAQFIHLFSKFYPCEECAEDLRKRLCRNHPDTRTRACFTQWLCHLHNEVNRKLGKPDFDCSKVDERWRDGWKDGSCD
# Calb FLC – affects C. albicans growth with fluconazole | C. albicans CaCi-2 (fluconazole-resistant clinical isolate) + fluconazole, Alamar Blue growth, 48 h | growth inhibition, % (no concentration beside the values) | hit rate 0.57% among 300,000;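 active means most replicates above 75%; inconclusive means exactly half above 75%; inactive means most below 75%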;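 further: all wells also contain fluconazole at 8 µg/ml as a sub-toxic cotreatment; 0% = median of DMSO wells and 100% = median of geldanamycin control wells; wells of about 8 µL received 7.5 nL stock; the first replicate is given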
# HNF4A DNA FP – change in binding of human HNF4 alpha to DNA; P41235; HNF4a-FITC DNA binding, fluorescence polarization, 1 h; activity change, % at 10 µM; hit rate 0.3% among 360,000; in the data active means activity change above about 30%, passing the limit was not always enough;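 further: controls were the assay level and a saturating level of protein; the project sought stronger binding though the title names inhibitors; some compounds called inactive have numbers as strong as hits; positive values seem to mean higher polarization but the record does not say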
# Target sequence (P41235 whole entry, looked up): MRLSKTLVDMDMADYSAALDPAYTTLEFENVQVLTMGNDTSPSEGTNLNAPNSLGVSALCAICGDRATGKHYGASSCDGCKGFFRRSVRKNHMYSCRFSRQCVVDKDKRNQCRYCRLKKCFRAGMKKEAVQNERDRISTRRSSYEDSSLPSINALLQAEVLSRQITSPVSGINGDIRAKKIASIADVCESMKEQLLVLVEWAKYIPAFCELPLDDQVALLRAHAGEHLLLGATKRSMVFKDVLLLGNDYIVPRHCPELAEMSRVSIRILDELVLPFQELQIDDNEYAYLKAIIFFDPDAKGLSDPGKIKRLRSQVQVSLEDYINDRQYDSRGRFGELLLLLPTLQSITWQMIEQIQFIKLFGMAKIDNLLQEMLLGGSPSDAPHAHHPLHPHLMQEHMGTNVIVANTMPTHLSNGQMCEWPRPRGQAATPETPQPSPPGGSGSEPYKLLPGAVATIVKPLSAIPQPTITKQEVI
# RanGTP-Impb inh – disruptors of Ran-importin-beta complex formation – biochemical, FRET, CFP-Ran, YFP-importin-beta, homogeneous, primary screen; inhibition, % (test concentration not listed); cell-free CFP-Ran/YFP-importin-beta FRET ratio; hit rate 1.1% among 300,000;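 active means most replicates above 15%; inconclusive means exactly half above 15%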;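 further: 0% = DMSO wells and 100% = Ran loaded with GDP instead of GTP; wells of about 40 µL received 100 nL stock; the first replicate is given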
# Beta2AR agonist – human beta-2 adrenergic receptor agonism by FAP. AID 504454. Am2.2-beta2AR cells, FAP receptor internalization, flow cytometry; reference of the scale not given here. hit rate 0.43% among 340,000. response, % (test concentration not listed);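 active means response above a set limit, near 3 SD of response in nonfluorescent compounds, cut at about 42% in these data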;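 further: stock transfer was 100 nL into about 11 µL; a reference agonist was the positive control; negative values mostly stem from fluorescent compounds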
# Target sequence (P07550 whole entry, looked up): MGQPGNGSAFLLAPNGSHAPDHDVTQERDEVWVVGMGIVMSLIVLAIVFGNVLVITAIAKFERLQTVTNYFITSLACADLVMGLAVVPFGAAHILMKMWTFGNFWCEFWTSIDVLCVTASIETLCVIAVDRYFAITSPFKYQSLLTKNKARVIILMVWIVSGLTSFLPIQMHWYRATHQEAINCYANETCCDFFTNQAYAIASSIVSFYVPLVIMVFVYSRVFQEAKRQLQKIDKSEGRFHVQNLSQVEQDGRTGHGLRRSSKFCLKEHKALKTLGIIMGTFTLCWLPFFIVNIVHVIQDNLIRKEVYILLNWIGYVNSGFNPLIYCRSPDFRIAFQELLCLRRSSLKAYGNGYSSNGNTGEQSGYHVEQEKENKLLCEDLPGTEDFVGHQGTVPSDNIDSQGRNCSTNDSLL
# Starred values were filed as active, the others as inactive; ? = inconclusive; / = no result given.
mol,Vif TR-FRET,LANA-H2B inh,ALR inh,Calb FLC,HNF4A DNA FP,RanGTP-Impb inh,Beta2AR agonist
NC(=O)c1ccsc1NC(=O)CN1C(=O)C2CC=CCC2C1=O (centres undefined),7%,0.2,/,16,-1.2,?,-4
COc1ccc(C2NC(=O)C(C)S2)cc1 (centres undefined),-1%,2.5,2,5,-1.5,-0.2,4
O=S(NCc1ccccc1)C12CC3CC(CC(C3)C1)C2 (centres undefined),?,-1.4,39,-12,-2.2,2.6,-5
COc1cc(/C=C2\C(=O)N(c3ccc(NC(C)=O)cc3)N=C2c2ccccc2)ccc1O,11%,2.0,95*,16,-2.4,/,10
CCNc1ccc(S(=O)(=O)NCCN(C)C)cc1[N+](=O)[O-],0%,-2.3,/,-8,3.4,3.3,-12
Cc1ccsc1/C=N/NC(=O)c1sccc1C,-2%,3.0,-8,1,0.8,-1.4,-14
CN1CCN(C2Cc3cc(Cl)ccc3Sc3cc(F)ccc32)CC1 (centres undefined),/,-8.6,-2,36,1.9,-1.5,17
CN(C)C(=O)COC(=O)c1ccccc1NC(=O)c1ccco1,-10%,-7.2,11,-2,-3.4,0.0,4
COC(=O)c1cc(NC(=O)c2ccc(F)cc2)cc(C(=O)OC)c1,-5%,-1.3,-4,17,0.1,2.8,-5
Cc1cc(/C=N/n2cnnc2)c(C)n1-c1ccccc1,1%,-0.5,0,21,1.0,1.2,-3
CCOc1nc2ccccc2cc1/C=C/C(=O)O,-5%,0.2,-14,18,5.8,5.7,2
O=C(Nc1ccon1)c1cccc(Cl)c1,1%,-4.1,-1,-8,1.5,-2.6,-9
COc1ccc(CNC(=O)CCNS(=O)(=O)c2ccc(Br)s2)cc1,/,6.4,-1,3,1.1,?,-1
O=C(COC(=O)c1ncc(Cl)c(Cl)c1Cl)Nc1ccc(Cl)cn1,2%,0.2,2,0,0.2,4.6,12
COc1cccc(-c2nnc(SCC(=O)N3CCCC3=O)n2-c2ccccc2)c1,23%,3.6,-1,-4,3.3,-1.7,-2

# The closing 2 entries of the part before lead into the next:
mol,Vif TR-FRET,LANA-H2B inh,ALR inh,Calb FLC,HNF4A DNA FP,RanGTP-Impb inh,Beta2AR agonist
O=C(COC(=O)c1ncc(Cl)c(Cl)c1Cl)Nc1ccc(Cl)cn1,2%,0.2,2,0,0.2,4.6,12
COc1cccc(-c2nnc(SCC(=O)N3CCCC3=O)n2-c2ccccc2)c1,23%,3.6,-1,-4,3.3,-1.7,-2
CC(C)CNC(=O)C1c2ccccc2Oc2ccccc21,14%,-4.3,/,-26,1.4,3.4,11
Cc1ccc2cc([N+](=O)[O-])ccc2n1,-5%,-0.9,-12,-5,-0.6,-4.2,0
CCc1ccc2[nH]c(=O)c(CN(Cc3ccc(OC)cc3)Cc3nnnn3CCOC)cc2c1,20%,/,/,16,-2.6,-0.6,-6
CC1C(=O)N2CCCc3cc(NS(=O)(=O)c4ccccc4)cc1c32 (centres undefined),-8%,3.0,-16,1,-0.1,0.7,2
O=C(COC(=O)c1cc(Br)ccc1O)NC12CC3CC(CC(C3)C1)C2,-1%,4.4,0,/,5.2,/,1
CC(=O)c1ccccc1OCc1ccc(C(=O)c2ccccc2)cc1,/,-1.8,/,1,-1.7,-5.3,1
COC(=O)c1ccc(NC(=O)C2CC(=O)N(c3ccc(C)cc3)C2)cc1 (centres undefined),27%,-0.9,-1,/,2.6,/,-1
Cn1ccnc1SCC(=O)c1ccc(C#N)cc1,/,2.9,50,-6,-3.3,2.8,-7
COc1ccc(NC(=O)C2CC(c3ccc(Cl)cc3)=NO2)cc1 (centres undefined),5%,2.4,4,6,1.1,-5.5,-4
Cn1c(-c2ccc(F)cc2)cnc1SCC(=O)Nc1ccccc1N1CCOCC1,24%,0.8,-10,-8,1.2,-0.1,4
C=CCN1CCN(C(c2cc(OC)ccc2OC)c2nnnn2CC2CCCO2)CC1 (centres undefined),-2%,1.9,-18,0,-2.8,1.0,-4
COc1cc(OC)c(OC)cc1/C=C(\C#N)C(=O)NCc1cccs1,-6%,6.9,-16,-13,2.7,8.3,7
CCn1ccnc1CN(C)Cc1nc(-c2ccc3c(c2)OCO3)no1,?,10,/,-18,-5.3,?,-8
OCCN=c1cc(-c2ccccc2)oc2ccc(Cl)cc12,-1%,5.0,-3,-6,-1.1,-2.5,-16
C=CCn1c(C2CC2)n[nH]c1=S,/,-2.2,5,-7,2.4,-1.5,3
COC(=O)C[C@H]1c2cc(C(F)(F)F)ccc2S(=O)(=O)N1C(C)(C)C,/,-4.7,/,-3,-1.9,3.8,-2
Cc1cccc(NC(=O)c2cc(-c3ccc(C)s3)nc3ccccc23)n1,-4%,-2.0,-3,14,-1.6,1.6,17
C=CCn1c(Cc2csc(N)n2)nnc1SCC(=O)Nc1ccc(C(=O)OCC)cc1,-1%,-0.6,-6,-7,-0.4,1.4,-1
Cc1ccc(CSc2nc3[nH]ncc3c(=O)[nH]2)cc1,-8%,5.9,-6,31,-4.6,3.1,-1
Cc1ccc(NS(=O)(=O)c2ccccc2)c([N+](=O)[O-])c1,-5%,/,/,/,5.3,/,-1
Cc1ccn2c(=O)c(C(=O)O)cnc2c1,-6%,-6.2,-5,-12,-0.7,1.0,9
CCN(CC(=O)NCc1ccc(Cl)cc1)C(=O)NCc1ccc(Cl)cc1,-10%,5.9,-4,3,-1.5,-2.4,2
Cc1ncc(C23CC4CC(CC(C4)C2)C3)[nH]1,-3%,-2.7,-7,25,0.1,?,-3
O=S(=O)(NC1CCCCC1N1CCN(c2cccc(Cl)c2)CC1)c1ccccc1 (centres undefined),3%,5.7,-13,-20,4.4,0.3,14
COc1cccc(-c2ncc3ccccc3c2COC(=O)c2ccc(F)cc2)c1,/,0.9,-4,/,-1.9,/,1
COc1ccc(OC)c(C2=NOC(C(=O)Nc3cccnc3)C2)c1 (centres undefined),-2%,4.8,0,6,-2.5,-0.4,-3
COC(=O)c1cn(-c2cccc(C)n2)cn1,1%,-4.0,-1,?,-1.6,0.2,3
O=C(NC(=S)Nc1ccc(Br)cc1)C1CCCCC1,/,-183,-2,2,-0.9,-2.5,-3
CC(C)(C)C(=O)n1nc(-c2ccccc2)oc1=O,-11%,0.0,71,-2,1.1,3.5,1
O=C(CSc1nnc(-c2ccc(S(=O)(=O)N3CCCC3)cc2)n1CC1CCCO1)NC1CC1 (centres undefined),5%,-7.7,-14,0,-0.5,3.4,-7
Cc1ccc2[nH]c(CSc3ccccc3)cc(=O)c2c1,6%,1.6,/,14,1.1,-1.4,-6
CCn1cc(C(=O)NC(C)C)c(=O)c2cc(F)c(N3CCN(C(=O)c4ccco4)CC3)cc21,-3%,-2.5,-8,-19,0.4,1.8,5
Cc1sc(NC(=O)c2ccc3ncsc3c2)c(C(N)=O)c1C,0%,-0.8,22,33,-3.9,7.9,5
O=C(N/N=C/c1ccc(-c2ccccc2)o1)c1ccccc1O,20%,-6.5,41,-1,-5.4,-1.0,10
O=C(OCc1nc2ccc(Cl)cc2n1CCO)c1ccccc1,/,-2.3,-3,1,4.8,-1.1,0
O=C1CN(C(=O)COC(=O)CNS(=O)(=O)/C=C/c2ccccc2)c2ccccc2N1,2%,0.4,0,46,2.1,-1.9,-2
C=CCn1c(-c2cc(Cl)ccc2OC)n[nH]c1=S,-8%,-16,42,0,-2.7,-4.0,2
COc1ccc([N+](=O)[O-])cc1NC(=O)c1ccc(-n2nc(C)cc2C)cc1,-7%,-1.2,-4,9,6.0,-2.4,3
COc1ccccc1C(=O)Nc1ccc(OCC(=O)N2C(C)CCCC2C)cc1 (centres undefined),4%,-5.9,2,/,-1.6,/,-3
Cc1nn(-c2ccccn2)c2c1C(c1ccncc1)C1=C(CC(C)(C)CC1=O)N2 (centres undefined),?,-1.1,16,4,3.0,7.9,-13
CN(C)S(=O)(=O)N1CCC(n2nccc2NC(=O)CCCc2ccccc2)CC1,/,3.0,-2,12,-2.7,3.5,-3
O=C(NCCN1CCOCC1)c1ccc2c(c1)N(Cc1ccc(Cl)cc1)CCS2,?,1.6,/,11,-1.3,-3.2,9
CCN(CC(=O)Nc1c(F)cccc1F)C(=O)CCC(=O)c1ccc(F)cc1,-5%,0.8,-13,-5,4.6,-4.4,1
CCNc1ccc(Br)cc(C(=O)/C=C/c2ccccc2Cl)c1=O,/,5.4,/,19,-9.1,-13,-96
COc1ccc(C2(C)NC(=O)NC2=O)cc1OC (centres undefined),/,5.4,4,1,0.1,-3.0,-1

# Ordered by the number under Beta2AR agonist (highest first): some entries from above
smiles | Vif TR-FRET | LANA-H2B inh | ALR inh | HNF4A DNA FP | RanGTP-Impb inh | Beta2AR agonist
O=C(N/N=C/c1ccc(-c2ccccc2)o1)c1ccccc1O | 20% | -6.5 | 41 | -5.4 | -1.0 | 10
O=C(NCCN1CCOCC1)c1ccc2c(c1)N(Cc1ccc(Cl)cc1)CCS2 | ? | 1.6 | / | -1.3 | -3.2 | 9
COc1ccc([N+](=O)[O-])cc1NC(=O)c1ccc(-n2nc(C)cc2C)cc1 | -7% | -1.2 | -4 | 6.0 | -2.4 | 3
O=C(OCc1nc2ccc(Cl)cc2n1CCO)c1ccccc1 | / | -2.3 | -3 | 4.8 | -1.1 | 0
COc1ccccc1C(=O)Nc1ccc(OCC(=O)N2C(C)CCCC2C)cc1 (centres undefined) | 4% | -5.9 | 2 | -1.6 | / | -3
Cc1nn(-c2ccccn2)c2c1C(c1ccncc1)C1=C(CC(C)(C)CC1=O)N2 (centres undefined) | ? | -1.1 | 16 | 3.0 | 7.9 | -13

# (further entries)
mol,Vif TR-FRET,LANA-H2B inh,ALR inh,Calb FLC,HNF4A DNA FP,RanGTP-Impb inh,Beta2AR agonist
O=C1CCCCCCC1Sc1ccccc1[N+](=O)[O-] (centres undefined),-2%,/,/,29,-0.4,0.6,4
CCCNC(=O)c1ccc(COc2ccc(C)cc2)o1,/,-1.9,13,12,1.7,3.3,-3
COc1ccc(CC(=O)NCc2ccc3c(c2)cc(C)n3C)cc1OC,-6%,7.5,-2,1,-0.4,2.1,3
CC1(c2nnc(-c3ccc(Cl)cc3)o2)CC(c2ccc(Cl)cc2)=NO1 (centres undefined),/,0.1,/,11,-2.4,0.9,-14
COc1ccc(S(=O)(=O)N2CCCOC2CNC(=O)C(=O)NCCc2ccco2)cc1 (centres undefined),/,0.3,-6,10,2.2,?,8
COc1cc(/C=C/C(=O)OCC(=O)NCc2ccc3c(c2)OCO3)cc(OC)c1OC,/,1.9,-8,/,3.6,/,-4
Cc1cc2cc(CN(CC3CCCO3)C(=O)c3cnccn3)c(=O)[nH]c2cc1C (centres undefined),26%,0.1,/,-1,-1.4,-1.7,-3
Nc1nnnn1/N=C/c1ccccc1OCc1ccccc1,9%,-1.7,-11,30,1.9,3.1,1
CCOC(=O)c1ccc(NC(=O)c2nccnc2C(=O)O)cc1,?,-0.1,7,-9,2.7,-1.0,19
COc1ccc(OC)c(C(=O)NC(CC(N)=O)c2ccc(N3CCN(c4ccccn4)CC3)c([N+](=O)[O-])c2)c1 (centres undefined),/,-2.2,3,4,2.4,-0.1,16
O=C(Nc1ccc(N2CCN(C(=O)c3ccco3)CC2)cc1)c1cccs1,7%,1.0,17,2,-0.4,-2.8,20
COc1cc(/C=C/C(=O)Nc2ccc(N3CCCCC3)c(S(=O)(=O)Nc3ccccc3Cl)c2)cc(OC)c1OC,/,-6.1,-15,-1,-1.0,-0.4,-1
COc1ccc(C(=O)Nc2ccccc2C(=O)NCCN2CCOCC2)cc1,4%,-2.4,4,-11,-0.9,3.2,3
Cc1ccc2cccc(NC(=O)C(F)(F)F)c2n1,/,1.5,-63,-7,-0.1,-3.0,9
O=C(COC(=O)c1ccc(O)cc1)NCCCc1ccccc1,22%,/,/,-24,2.8,-3.4,4
